Mtb growth – M. tuberculosis H37Rv growth inhibitors, H37Rv strain (AID 1626); M. tuberculosis H37Rv growth inhibition; higher % means a stronger effect; one-dose inhibition, % at 10 µM; IC50 in µM for titrated hits; 0.95% of 220,000 active;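 active means confirmed in a dose series; inconclusive means inhibition above 80% but not taken into the dose series; inactive means below 80% or under 30% at every dose of the series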;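 further: bacteria incubated seven days before Alamar blue readout; 0% = bacteria only wells and 100% = bacteria with antibiotic wells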
Arbovirus anti – blocks arbovirus infection; arbovirus infection cell-based antiviral screen; AID 1251; 0.37% of 200,000 active; inhibition, % at 10 µM;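 active means inhibition from about 30%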;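 further: bluetongue infection of BSR cells; cell survival read as ATP light after 72 h; 0% = infected wells without compound and 100% = uninfected wells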
YopH inh – blocks Yersinia enterocolitica YopH tyrosine phosphatase; fluorescence Ex485/Em525; 0.16% of 140,000 active; inhibition, %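 (about 10 µM by stock and volumes)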;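 active means inhibition of 50% or more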;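 further: controls were vehicle for no effect and minimum signal wells for full effect; inactives centre near -20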
RecA intein inh – Mtb RecA intein splicing inhibition. inhibition, %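 (about 9 µM by stock and volumes)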. AID 2221. 0.75% of 290,000 active. P9WHJ3. cell-free RecA intein splicing, fluorescence; in the data active means inhibition above about 30%; inconclusive means no clear call, values can overlap the other calls;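 further: 0% = vehicle wells and 100% = reference inhibitor control wells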
Target sequence (P9WHJ3 whole entry, looked up): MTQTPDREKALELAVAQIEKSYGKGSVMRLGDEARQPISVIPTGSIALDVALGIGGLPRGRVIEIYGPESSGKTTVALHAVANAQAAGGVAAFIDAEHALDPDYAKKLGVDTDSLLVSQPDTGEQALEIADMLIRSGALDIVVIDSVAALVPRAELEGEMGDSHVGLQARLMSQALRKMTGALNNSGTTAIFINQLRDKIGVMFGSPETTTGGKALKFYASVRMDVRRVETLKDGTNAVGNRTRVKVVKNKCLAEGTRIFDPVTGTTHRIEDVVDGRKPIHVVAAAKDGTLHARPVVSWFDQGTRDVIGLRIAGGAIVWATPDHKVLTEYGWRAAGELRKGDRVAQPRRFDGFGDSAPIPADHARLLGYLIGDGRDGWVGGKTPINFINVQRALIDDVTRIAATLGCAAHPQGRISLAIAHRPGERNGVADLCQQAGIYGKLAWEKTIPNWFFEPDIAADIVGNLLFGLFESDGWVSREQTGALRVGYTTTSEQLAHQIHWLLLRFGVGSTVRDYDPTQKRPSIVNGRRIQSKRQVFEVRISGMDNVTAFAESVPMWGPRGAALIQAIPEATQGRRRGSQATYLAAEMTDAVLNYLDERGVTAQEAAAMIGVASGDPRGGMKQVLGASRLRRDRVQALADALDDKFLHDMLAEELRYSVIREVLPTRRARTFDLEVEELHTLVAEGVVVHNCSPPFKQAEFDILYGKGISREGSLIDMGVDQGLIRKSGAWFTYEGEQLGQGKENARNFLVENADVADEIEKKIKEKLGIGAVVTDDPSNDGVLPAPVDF
Mtb betalactam – beta-lactam sensitization of Mtb H37Rv | inhibition, % at 25 µM | 0.27% of 330,000 active | M. tuberculosis H37Rv growth with meropenem, percent inhibition; hits of this screen are not shown here | AID 434955;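 active means about 74% or more and at least 40 points above the plate without the antibiotic, then above 30% in a dose series; inconclusive means first-round hits that could not be retested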;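 further: growth measured after seven days incubation then overnight dye step; 0% = bacteria only wells and 100% = bacteria with antibiotic; twin plates without the antibiotic show which effects depend on it; some results filed as inactive read as strong as hits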
Arbovirus anti repeat – second read-out of Arbovirus anti, no call of its own (marks repeat the call); inhibition, %; measured here: 10K subset replicate screen; many hits read low in the repeat;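 first of two repeat runs on a subset; 0% = infected and 100% = uninfected wells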
Starred values were filed as active, the others as inactive; ? = inconclusive; . = not tested or not shown. This is a subset; rates above refer to the full screens.

SMILES	Mtb growth	Arbovirus anti	YopH inh	RecA intein inh	Mtb betalactam	others
CCN(CCO)Cc1csc2cccc(Br)c12	.	5	-11	1.5	-9
Cc1ccc(NC(=O)CSc2nnc(CCCCCNC(=O)OC(C)(C)C)o2)c(C)c1	3%	1	2	-0.9	2
O=C(O)CCC(=O)N1CCc2cc(S(=O)(=O)N3CCC(Cc4ccccc4)CC3)ccc21	-6%	1	-48	0.8	-2	Arbovirus anti repeat=-1
CCc1ccc(NC(=O)c2noc3c2CCc2ccccc2-3)cc1	-2%	8	-20	1.7	0
Cc1cccc(NC2=Nc3ccccc3N3C2=Nc2c(c(C)nn2-c2ccccc2)C3c2ccc(O)c(O)c2)c1 (configuration not stated)	?	-42	-15	-9.0	100
CCN(CC(=O)NC(C)(C)C)C(=O)CCl	2%	5	-27	13	-4
Nc1nnnn1/N=C/c1ccco1	-8%	0	-17	2.0	9
O=C(Nc1ccncc1)c1ccc2c(c1)C(=O)N(CC1CCCO1)C2=O (configuration not stated)	-4%	9	-20	-3.3	6
COc1ccc(/C=N/Nc2nc(-c3ccc(C)cc3)c(NC(C)=O)s2)cc1OC	-14%	.	.	-1.7	.
CCCCSc1nc(C)cc(SCC(=O)N/N=C/c2cccc(OC)c2O)n1	.	-20	-47	0.7	29
C=C(C)CNC(=S)Nc1ccc(S(=O)(=O)Nc2cnc3ccccc3n2)cc1	-13%	.	.	1.7	-4
O=C(/C=C/c1ccccc1)Oc1cccc2cccnc12	7.9µM*	.	.	-26	100
O=C(Nc1ccccc1Cl)NC1(C(=O)NCc2ccncc2)CCCCC1	.	.	.	-3.2	1
O=C(O)C1CCCCC1C(=O)Nc1nc(-c2ccc(Cl)s2)cs1 (configuration not stated)	7%	38*	.	-1.8	1
Cc1cccc(N(C(=O)c2csnn2)C(C(=O)NCc2ccccc2)c2ccc(C)o2)c1 (configuration not stated)	.	.	.	2.2	-2
Cc1ccc(S(=O)(=O)NC(Cc2ccccc2)C(=O)O)cc1C (configuration not stated)	.	.	.	-0.6	5
O=C(Nc1cccc([N+](=O)[O-])c1)c1ccc2ccccc2c1O	-2%	.	.	-1.5	-2
COc1ccccc1Nc1ccc(NC(=O)c2cccc([N+](=O)[O-])c2C)cc1	.	.	.	2.9	-4
O=C(NC1CC1)c1ccc(S(=O)(=O)NCC2CCCCC2)cc1	6%	-7	13	.	4
CC1(C)Nc2ccccc2C(=O)N1NS(=O)(=O)c1ccccc1	9%	-13	-18	-9.8	-1
O=C1CSC(c2ccco2)N1 (configuration not stated)	1%	-3	-46	-2.0	21
NC(=O)C1CCN(C(=O)c2cn(-c3ccccc3)nc2-c2cccnc2)CC1	.	.	.	11	-16
CSc1ccc(CN2CCC(C(=O)NCc3ccc(C)cc3)CC2)cc1	-6%	-1	.	.	-2
Cc1cc(OCC(=O)NCc2ccccn2)c2c(C)c(Cc3ccccc3)c(=O)oc2c1	.	.	.	-0.3	-1
CCOc1ccc(S(=O)(=O)N(CC)CC(=O)NCc2ccccn2)cc1C	.	.	.	-1.5	2
Other compounds
SMILES	Mtb growth	Arbovirus anti	YopH inh	RecA intein inh	Mtb betalactam	others
CC(=O)CSc1nsc(SCC(C)=O)c1C#N	-2%	2	-18	2.5	-7
CCc1c(C)[nH]n(CCC#N)c1=O	-7%	-1	-19	3.2	-1
O=C(c1ccccc1NS(=O)(=O)c1ccc(F)cc1)N1CCOCC1	.	.	.	-0.7	-9
Cc1ccc(C)c(NC(=O)CN(C)C(=O)c2ccc(Cl)nc2)c1	.	.	.	-0.8	-6
c1ccc(-c2ccc(OCCN3CCOCC3)cc2)cc1	.	.	.	1.1	-3
CC(O)CNC(=S)Nc1ccccc1 (configuration not stated)	.	9	.	-0.5	-2
CCCCN(CCCNC(=O)CN1C(=O)COc2ccccc21)c1ccccc1	11%	-4	-14	-3.1	3
Cc1cc(O)cc(=O)n1C	.	3	.	-1.3	-10
Cc1[nH]c2ccccc2c1C(=O)COC(=O)c1ccc2c(=O)n3c(nc2c1)CCC3	3%	0	.	18	0
COc1ccc(C)cc1NC(=O)CSc1nnc(CC(=O)Nc2cccc(C(F)(F)F)c2)n1C	-9%	7	-13	1.1	13
Cn1c(N2CCOCC2)c(/C=N/OC(=O)c2ccc(F)cc2)c2ccccc21	38%	-17	-33	-1.4	79
Cc1ccc([N+](=O)[O-])cc1NC(=O)c1cccs1	1%	6	.	0.7	0
Oc1cccc(Nc2ncnc3c2oc2ccccc23)c1	.	.	.	-1.4	0
Cc1ccc(S(=O)(=O)N2CCC(C(=O)N(C)C3CCS(=O)(=O)C3)CC2)cc1 (configuration not stated)	1%	5	-8	0.5	-13
CCn1c(C(=O)NCc2cccnc2)cc2sc(Cl)cc21	.	9	-37	4.9	1
NNC(=O)Cn1c2ccccc2c2ccccc21	-12%	.	.	3.5	-6
CCCN(CC(=O)Nc1ccccc1C)C(=O)c1ccc(Cl)c(S(=O)(=O)N2CCCC2)c1	.	.	.	13	-4
Cc1cccc(NS(=O)(=O)c2c(C)noc2C)c1	-5%	-2	.	-0.3	-3
CC(=O)c1cccc(NC(=O)Cc2ccc3c(c2)CCCC3)c1	10%	16	-10	2.2	13
Cc1ccc(S(=O)(=O)Nc2c(C)n(C)n(-c3ccccc3)c2=O)cc1C(=O)OCC(=O)N1CCCC(C)C1 (configuration not stated)	0%	2	.	-1.2	4
Cc1ccc(N2CC(C(=O)NC3=NCCS3)CC2=O)cc1C (configuration not stated)	3%	-8	18	-0.6	-5
Cc1ccc2c(C)c(C(=O)N(Cc3ccc(N(C)C)cc3)C3CCS(=O)(=O)C3)oc2c1 (configuration not stated)	.	.	.	9.0	4
O=C1NC(=O)N(c2ccccc2)C(=O)/C1=C\c1ccccc1[N+](=O)[O-]	-1%	.	.	-2.0	-1
COc1ccccc1NS(=O)(=O)c1cc(NC(=O)CNC(=O)c2ccc(C)s2)ccc1Cl	4%	6	-20	-1.0	-2
CCC(NC(=O)c1cncc(Br)c1)c1ccccc1 (configuration not stated)	.	.	.	0.4	-3

The final 7 records of the section above open the next one.
SMILES	Mtb growth	Arbovirus anti	YopH inh	RecA intein inh	Mtb betalactam	others
CC(=O)c1cccc(NC(=O)Cc2ccc3c(c2)CCCC3)c1	10%	16	-10	2.2	13
Cc1ccc(S(=O)(=O)Nc2c(C)n(C)n(-c3ccccc3)c2=O)cc1C(=O)OCC(=O)N1CCCC(C)C1 (configuration not stated)	0%	2	.	-1.2	4
Cc1ccc(N2CC(C(=O)NC3=NCCS3)CC2=O)cc1C (configuration not stated)	3%	-8	18	-0.6	-5
Cc1ccc2c(C)c(C(=O)N(Cc3ccc(N(C)C)cc3)C3CCS(=O)(=O)C3)oc2c1 (configuration not stated)	.	.	.	9.0	4
O=C1NC(=O)N(c2ccccc2)C(=O)/C1=C\c1ccccc1[N+](=O)[O-]	-1%	.	.	-2.0	-1
COc1ccccc1NS(=O)(=O)c1cc(NC(=O)CNC(=O)c2ccc(C)s2)ccc1Cl	4%	6	-20	-1.0	-2
CCC(NC(=O)c1cncc(Br)c1)c1ccccc1 (configuration not stated)	.	.	.	0.4	-3
O=C(NCCCc1nc2ccccc2[nH]1)c1ccc(F)cc1	0%	20	.	-1.2	-1
CC(C)CCNC(=O)c1ccc(Cl)c(NC(=O)c2ccccc2F)c1	-1%	-34	.	2.1	5
CC(C)Oc1ccc(CCNC(=O)CC2C(=O)NCCN2C)cc1 (configuration not stated)	-2%	.	.	0.8	-9
CC1CCC(NC(=O)CN2CCCN(Cc3ccc(F)cc3Cl)C2=O)CC1 (configuration not stated)	2%	11	-14	-0.2	5
CCCCNc1ccccc1C(=O)OCC(=O)Nc1ccc(S(N)(=O)=O)cc1	-11%	-1	-14	-2.4	46
O=C(Nc1ccc2c(c1)OCCO2)c1c[nH]c(=O)n(-c2ccc(F)c(Cl)c2)c1=O	.	.	.	-3.7	2
CC(=O)Nn1c(C)nnc1-n1nc(C)cc1C	-3%	3	-38	-1.8	-9
Cc1nc([N+](=O)[O-])cn1CC(O)c1ccc(F)cc1 (configuration not stated)	-3%	.	.	-0.6	-3
COc1ccc(CCNC(=O)CCn2c(=O)oc3ccccc32)cc1	0%	6	-31	-1.5	5	Arbovirus anti repeat=6
CC1=C(C(=O)OC2CCCCC2)C(c2ccc(O)cc2)NC(=O)N1 (configuration not stated)	.	.	.	2.9	4
Cc1cccc(NC2=NCC(=O)N2CCc2ccccc2)c1	7%	8	-78	3.3	-4
COC(=O)CSc1nnc(-c2ccncc2)o1	-3%	7	1	0.0	5	Arbovirus anti repeat=3
Cc1ccccc1-c1ccc(=O)n(CC(=O)Nc2ccc(-n3cnnn3)cc2)n1	5%	.	.	1.9	-10
COc1ccc2nc(SCC(=O)NCc3ccc(S(N)(=O)=O)cc3)[nH]c2c1	.	.	.	-1.2	5
Cc1ccc(NC(=O)c2ccc(=O)[nH]c2)cc1S(=O)(=O)N1CCCCC1	3%	.	.	-1.5	-4
CCN1C(=O)Nc2cccc3cccc1c23	.	.	.	-0.1	24
CC1(C)CC(O)CC(C)(C)N1CC(O)COCCOc1ccc(Br)cc1 (configuration not stated)	-5%	-2	-8	0.9	-7
CCOC(=O)C1CCN(C(C(=O)NC2CCCCC2)c2ccc(OC)cc2)CC1 (configuration not stated)	4%	8	-6	.	-3	Arbovirus anti repeat=6
COc1cccc(-c2cc(C(=O)Nc3ccn(Cc4ccc(C)cc4)n3)no2)c1	4%	-2	.	-16	-4
O=C(NC(=S)Nc1ccc2c(c1)OCO2)c1ccccc1	6%	-13	-1	2.6	0
CC(SCc1ccccc1)C(=O)Nc1ccccc1-c1ccccc1 (configuration not stated)	-1%	-5	13	8.2	-1
C[C@]12CCC3[C@@H](CC[C@H]4C[C@@H](O)CC[C@]34C)C1CCC2=O (some centres not stated)	.	.	.	-1.2	?
Cc1cccc(-n2c(=O)[nH]c3c(C(N)=O)nc(C(C)C)nc32)c1	-13%	1	16	-1.8	5
O=C1CCCC2=C1C(c1cccc(O)c1)c1c(ccc3ncccc13)N2 (configuration not stated)	7%	-2	.	3.1	6
CCC1(CC)NC(=O)N(CC(=O)OCC(=O)NC(=O)c2ccc(Cl)cc2)C1=O	0%	3	.	-1.8	-2
The listing continues.
SMILES	Mtb growth	Arbovirus anti	YopH inh	RecA intein inh	Mtb betalactam	others
COC(=O)C1=C(C)N(CCc2ccccc2)C(=O)C1	-2%	-1	0	.	-6
CCOc1ccc(S(=O)(=O)N2CCCC(C(=O)NCc3ccccn3)C2)cc1C (configuration not stated)	.	.	.	0.9	-3
COc1cccc(CN2CCCC(C(=O)c3ccc4c(c3)OCO4)C2)c1O (configuration not stated)	5%	7	.	-2.8	-2
CN(C)C(=O)C[n+]1ccc(/C=N/O)cc1	7%	1	-46	-1.6	-3
CCOc1cc(C2NC(=S)NC(C)=C2C(=O)Nc2ccc(OC)cc2)ccc1O (configuration not stated)	3%	10	-33	-5.0	3
O=C(Nc1ccc(N2CCOCC2)cc1)C1CCCCN1S(=O)(=O)c1ccccc1 (configuration not stated)	3%	.	.	-1.2	-1
CC1CN(C(=O)/C=C/c2ccc3c(c2)OCO3)CC(C)O1 (configuration not stated)	-2%	12	-19	4.9	-10
Cc1ccc(NC(=O)C2CCCN(S(=O)(=O)c3ccc(-n4cnnn4)cc3)C2)cc1 (configuration not stated)	.	.	.	2.6	1
Clc1nc2sccn2c1/C=N/n1cnc2ccccc21	-13%	-1	-3	-4.0	-2	Arbovirus anti repeat=-5
O=C1CN(CC(=O)N2CCCCC2)c2ccccc2O1	54%	4	-38	4.6	98
O=C(Nc1ccc(N2CCN(Cc3ccccc3)CC2)cc1)c1ccccc1[N+](=O)[O-]	2%	4	.	-3.9	-1
CCN(CC)S(=O)(=O)c1ccc(NC(=O)C(C)N(c2ccc(OC)cc2)S(C)(=O)=O)cc1 (configuration not stated)	2%	2	-10	-0.7	7
O=C(NC(=S)Nc1ccccc1N1CCOCC1)c1sc2ccccc2c1Cl	1%	5	-23	-4.0	-4
COc1ccccc1NC(=O)COc1ccc(/C=N/NS(=O)(=O)c2ccc(C)cc2)cc1	-3%	17	-35	2.8	59
O=C(CSc1cn(CC(=O)N2CCCC2)c2ccccc12)NCC1CCCO1 (configuration not stated)	-9%	23	.	0.5	3
COc1ccc(C(=O)c2c(-c3cccc(C)c3)oc3ccc(N4CCOCC4)cc23)cn1	.	.	.	1.4	62
CCN(C(=O)c1cc2cccc(OC)c2oc1=O)C1CCCCC1	-5%	5	-37	.	11

Quoted from above for reference:
SMILES	Mtb growth	Arbovirus anti	YopH inh	RecA intein inh	Mtb betalactam	others
COC(=O)C1=C(C)N(CCc2ccccc2)C(=O)C1	-2%	-1	0	.	-6
CCOc1ccc(S(=O)(=O)N2CCCC(C(=O)NCc3ccccn3)C2)cc1C (configuration not stated)	.	.	.	0.9	-3
COc1cccc(CN2CCCC(C(=O)c3ccc4c(c3)OCO4)C2)c1O (configuration not stated)	5%	7	.	-2.8	-2
CN(C)C(=O)C[n+]1ccc(/C=N/O)cc1	7%	1	-46	-1.6	-3

Compound activity deposited in PubChem by several laboratories.
